PV pol inh – inhibitors of poliovirus RNA polymerase binding and polymerization; P03300; hit rate 0.66% among 150,000; poliovirus polymerase elongation, fluorescence polarization; active compounds read low; % elongation, % (compound at 16.7 µg/mL); AID 588519; in the data active = % elongation below about 90%; note: some results filed as inactive read as strong as hits
Target sequence (P03300 1749-2209 limits assumed): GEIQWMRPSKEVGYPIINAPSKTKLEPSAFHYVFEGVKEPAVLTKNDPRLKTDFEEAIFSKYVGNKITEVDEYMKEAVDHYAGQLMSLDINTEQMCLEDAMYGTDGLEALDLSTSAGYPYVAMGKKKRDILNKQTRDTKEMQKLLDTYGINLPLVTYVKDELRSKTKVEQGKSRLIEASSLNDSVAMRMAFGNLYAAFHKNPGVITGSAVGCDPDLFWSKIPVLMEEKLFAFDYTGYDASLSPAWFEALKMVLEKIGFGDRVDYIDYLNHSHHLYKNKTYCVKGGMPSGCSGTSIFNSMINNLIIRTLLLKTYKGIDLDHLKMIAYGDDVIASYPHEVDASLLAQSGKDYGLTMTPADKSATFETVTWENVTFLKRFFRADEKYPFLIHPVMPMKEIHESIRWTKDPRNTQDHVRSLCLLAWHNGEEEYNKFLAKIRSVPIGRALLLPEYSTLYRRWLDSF
PV pol inh intensity – also measured in PV pol inh; calls as there; % elongation; measured here: total intensity read-out; formula for this scale not given here;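 total fluorescence in place of polarization; lower means less elongation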
Starred values were filed as active, the others as inactive. Some of the compounds tested; count on the stated rates, not on these rows.

Values run as follows: PV pol inh, PV pol inh intensity
Cc1ccc2oc(=O)c3cnn(CC(=O)N4CCN(c5ccccc5)CC4)c3c2c1
→ 107.0, 106.0
CC(=O)N1CCCc2cc(S(=O)(=O)N3CCCC(C(=O)NCc4ccccc4)C3)ccc21 (stereo not given)
→ 109.0, 108.0
CCOC(=O)c1[nH]c2ccccc2c1NC(=O)c1ccc(OCC)cc1
→ 106.0, 110.0
O=C(OCc1ccccc1Cl)c1ccc(-c2nnn(Cc3ccccc3)n2)cc1
→ 105.0, 105.0
Cc1ccc(NS(=O)(=O)c2ccc3c(c2)CC(C)N3C(=O)C2CCC2)cc1Cl (stereo not given)
→ 107.0, 108.0
CCCCN(CC)C(=O)CSc1nc2n[nH]c(C)c2c(=N)n1-c1cccc(Cl)c1
→ 99.0, 104.0
CCOC(=O)c1ccc(Nc2c(-c3ccc(OC)cc3)nc3nc[nH]n23)cc1
→ 109.0, 116.0
COc1cc(OC)c(NC(=O)CCn2cnc3onc(-c4ccc(F)cc4)c3c2=O)cc1Cl
→ 99.0, 105.0
O=C(NCC1CCN(Cc2cccc(Cl)c2)CC1)Nc1ccc(F)c(Cl)c1
→ 107.0, 108.0
COc1ccc(S(=O)(=O)n2nc(-c3ccco3)nc2NCc2ccc(C(C)C)cc2)cc1
→ 112.0, 108.0
CCc1ccc(CNC(=O)C2CCN(c3nn4cc(-c5ccc(OC)cc5)nc4s3)CC2)cc1
→ 110.0, 115.0
COc1ccc(C(=O)c2sc(Nc3ccccc3)nc2N)cc1
→ 104.0, 107.0
O=C(Nc1ccc2nc(SCC(=O)N3CCOCC3)sc2c1)c1cccc(Cl)c1
→ 113.0, 116.0
CCCS(=O)(=O)c1ncc(Cl)c(C(=O)N(Cc2ccccc2)Cc2ccco2)n1
→ 111.0, 109.0
COc1ccccc1N1CCN(C(CNC(=O)C(=O)NCc2ccc(C)cc2)c2cccnc2)CC1 (stereo not given)
→ 110.0, 101.0
COc1ccc(C(=O)NCc2nnc(SCC(=O)Nc3ccccc3)n2-c2ccccc2)cc1
→ 107.0, 109.0
CCC(=O)Oc1c(Sc2ccc(Cl)cc2)c(C)nn1C(C)(C)C
→ 106.0, 107.0
Nc1nnc(SCC(=O)Nc2ccccc2)s1
→ 106.0, 111.0
COc1ccc(CCNC(=O)CCCCn2c(=O)c3ccccc3n(CC(=O)Nc3c(C)cccc3C)c2=O)cc1OC
→ 110.0, 110.0
O=C(NCCc1ccccc1)c1cc(Nc2ccccc2)nc2ccccc12
→ 105.0, 110.0
COc1ccc(NC(=O)CSc2cn(CCNC(=O)c3c(F)cccc3F)c3ccccc23)cc1
→ 104.0, 108.0
COc1ccc(CCNc2nc3cc(OC)c(OC)cc3c3nc(-c4ccccc4)nn23)cc1OC
→ 104.0, 102.0
Cc1cc(-c2ccc(C)c(S(=O)(=O)Nc3ccc(C)c(N(C)C)c3)c2)on1
→ 103.0, 112.0
CCOc1ccc(NC(=O)CC2C(=O)N(c3ccc(OC)cc3)C(=O)N2CCC2=CCCCC2)cc1 (stereo not given)
→ 105.0, 104.0
COc1ccc(CNC(=O)C2=Cc3cccc(OC)c3OC2)cc1OC
→ 107.0, 114.0
COc1ccc(CN(C(=O)Nc2cccc(OC)c2)C2CCN(C(C)=O)CC2)cc1
→ 97.0, 105.0
COc1ccc(NC(=O)c2sc3nc(C)c(C(=O)Nc4ccc(C)cc4C)c(-c4ccccc4Cl)c3c2N)cc1
→ 102.0, 106.0
CCOc1ccccc1CNC(=O)CN1C(=O)c2cccnc2Oc2ccc(C)cc21
→ 106.0, 99.0
COc1ccc2oc(-c3ccc(C)c(NC(=O)COc4cc(C)cc(C)c4)c3)nc2c1
→ 105.0, 108.0
CCOC(=O)c1cccc(NC(=O)Nc2ccc3c(c2)N(C)C(=O)c2ccccc2S3)c1
→ 104.0, 101.0
Cc1cccc(CNC(=O)c2ccc(N3Cc4ccccc4Oc4ncccc43)s2)c1
→ 109.0, 104.0
COc1ccccc1NC(=O)C1=C(C)Nc2nc(SCc3cc(C)ccc3C)nn2C1c1ccccc1 (stereo not given)
→ 111.0, 104.0
N#C/C(=C\c1ccccc1)c1nc(-c2cc3cc(Br)ccc3oc2=O)cs1
→ 104.0, 109.0
COc1ccc(-n2c(-c3cccc(F)c3)nc3c(cnn3-c3ccc(C)cc3)c2=O)cc1
→ 109.0, 109.0
O=C(CC1C(=O)N(c2ccccc2)C(=O)N1Cc1ccc2c(c1)OCO2)Nc1ccccc1 (stereo not given)
→ 106.0, 104.0
O=c1c(S(=O)(=O)c2ccccc2)cn(Cc2ccccc2)c2cc(N3CCOCC3)c(F)cc12
→ 106.0, 111.0
Cc1cc(C)cc(-n2c(C)nc3cc(C(=O)NCc4ccccc4Cl)ccc32)c1
→ 114.0, 108.0
CCOC(=O)Cc1ccc(NC(=O)NCc2c(-n3cccc3)sc3c2CCCC3)cc1
→ 105.0, 107.0
COc1cccc2c1cc1c(=O)n(CC(=O)N3CCN(c4ccccc4)CC3)nc(C)n12
→ 104.0, 110.0
Cc1cccc(NS(=O)(=O)c2ccc3[nH]c(=O)ccc3c2)c1C
→ 100.0, 99.0
CCCS(=O)(=O)c1nc(S(=O)(=O)c2ccc(C)cc2)c(NCC(C)C)s1
→ 108.0, 104.0
Cc1c(CNCc2ccc(OC(C)C)cc2)c(C(=O)O)c(C)n1Cc1ccc(Cl)cc1
→ 104.0, 102.0
COc1cc2c(C(=O)N3CCN(c4cccc(C(F)(F)F)c4)CC3)cn(CC(C)C)c(=O)c2cc1OC
→ 107.0, 107.0
Cc1ccc(OCC(=O)Nc2nonc2-c2ccc(Br)cc2)cc1
→ 104.0, 105.0
COc1ccc(C(=O)NCC(c2ccc(N(C)C)cc2)N2CCOCC2)cc1 (stereo not given)
→ 104.0, 108.0
O=C(Nc1ccccc1)c1cc2c(-c3ccccc3)nn(-c3ccccc3)c2s1
→ 104.0, 105.0
Cc1nc(SCc2cccc(Cl)c2)nc2c1CCCC2
→ 101.0, 101.0
Cc1ccc(S(=O)(=O)c2cn(Cc3ccccc3)c3cc(N4CCCC4)c(F)cc3c2=O)c(C)c1
→ 109.0, 111.0
CCC(CC)C(=O)NCc1nc2cccnc2n1Cc1ccc(F)cc1
→ 102.0, 108.0
Cc1ccc(-n2ncc3c(N4CCN(c5ccc(F)cc5)CC4)ncnc32)cc1
→ 111.0, 115.0
Cc1c(-c2ccc(Cl)cc2)c(=O)oc2c(CN3CCN(CCO)CC3)c(O)ccc12
→ 106.0, 104.0
Cc1ccc(NC(=O)C(=O)NCc2ccc(Cl)cc2)cc1
→ 99.0, 100.0
CN(Cc1ccccc1)c1ccc(-c2nc(-c3ccccn3)no2)cc1[N+](=O)[O-]
→ 112.0, 109.0
COc1ccccc1CN1COc2ccc3c(oc(=O)c4ccccc43)c2C1
→ 100.0, 99.0
COc1cccc(CNC(=O)c2cc(-c3cccs3)nc3ccccc23)c1
→ 108.0, 113.0
CCc1ccc(-n2c(SCc3ccccc3Cl)nc3[nH]ncc3c2=O)cc1
→ 103.0, 98.0
CCc1ccccc1N1C(=O)N(CC(=O)c2ccc(Cl)cc2)c2ccccc2S1(=O)=O
→ 112.0, 112.0
Cc1ccccc1Cn1c2ccccc2c2cnn(CC(=O)NCCc3ccc(Cl)cc3)c(=O)c21
→ 107.0, 109.0
O=C1CC(c2ccccc2)Cc2[nH]c(=O)c(-c3nc(-c4ccc(F)cc4)cs3)cc21 (stereo not given)
→ 104.0, 101.0
CCCCNS(=O)(=O)c1ccc(N2CCCCS2(=O)=O)cc1
→ 104.0, 106.0

Continued (4 carried over from the part before).
Values run as follows: PV pol inh, PV pol inh intensity
CCc1ccccc1N1C(=O)N(CC(=O)c2ccc(Cl)cc2)c2ccccc2S1(=O)=O
→ 112.0, 112.0
Cc1ccccc1Cn1c2ccccc2c2cnn(CC(=O)NCCc3ccc(Cl)cc3)c(=O)c21
→ 107.0, 109.0
O=C1CC(c2ccccc2)Cc2[nH]c(=O)c(-c3nc(-c4ccc(F)cc4)cs3)cc21 (stereo not given)
→ 104.0, 101.0
CCCCNS(=O)(=O)c1ccc(N2CCCCS2(=O)=O)cc1
→ 104.0, 106.0
Cc1ccc2c(=O)c(C(=O)c3ccc(F)cc3)cn(CC(=O)NCc3ccccc3)c2n1
→ 112.0, 109.0
CC(=O)N1CCc2cc(Br)cc(S(=O)(=O)CCC(=O)Nc3ccc(C)cc3Cl)c21
→ 105.0, 96.0
Cc1nn(-c2ccc(N3CCOCC3)nn2)c(C)c1CCC(=O)NCc1ccccc1F
→ 104.0, 112.0
COc1cc(-c2noc(CSc3nc(-c4ccccc4)cc(=O)[nH]3)n2)cc(OC)c1OC
→ 109.0, 113.0
COc1ccc2c(c1)c1c(c(=O)n(-c3ccccc3C)c(=O)n1CC(=O)Nc1c(C)cccc1C)n2C
→ 108.0, 113.0
CCc1nn(CC(=O)NCC(C)c2ccccc2)c(=O)c2cc3c(OC)cccc3n12 (stereo not given)
→ 106.0, 107.0
CCc1ccccc1NC(=O)N1CCN(c2nnc(C)c3c(C)n(-c4ccccc4)nc23)CC1
→ 99.0, 108.0
CCOc1ccc(CNC(=O)C2CCN(C(=O)c3ccc(-n4ccc5ccccc54)s3)CC2)cc1
→ 102.0, 97.0
Cc1nn(C(C)C(=O)NCc2ccc(OC(C)C)cc2)c(=O)c2c1sc1ccccc12 (stereo not given)
→ 110.0, 100.0
COc1cccc(Cn2ccn(-c3ccc(F)cc3)c(=O)c2=O)c1
→ 109.0, 110.0
CC(=O)N1CCc2c(sc3c2c(=O)n(-c2cc(Cl)ccc2C)c(=O)n3C)C1
→ 104.0, 105.0
COC(=O)c1c(NC(=O)/C(C#N)=C/c2ccccc2)sc2c1CCC2
→ 107.0, 112.0
CCN1CCN(C(=O)c2ccc3c(c2)N(Cc2ccc(F)cc2)C(=O)c2ccccc2S3(=O)=O)CC1
→ 102.0, 101.0
COc1cccc(C2C(C(=O)Nc3ccc(Cl)cc3)=C(C)Nc3c(C(=O)Nc4ccccc4)cnn32)c1OC (stereo not given)
→ 102.0, 104.0
Cc1cc2c(cc1S(=O)(=O)CCC(=O)NCc1ccccc1)OCC(=O)N2
→ 110.0, 113.0
CCOc1ccc(-c2cnc(NCc3ccc(C(F)(F)F)cc3)n2C)cc1
→ 102.0, 100.0
CCOC(=O)c1cnn(-c2ccc(C(=O)Nc3cccc(C(C)=O)c3)cc2)c1N
→ 109.0, 111.0
CCc1ccc(NC(=O)c2cc3c(=O)n(Cc4cccs4)ccc3nc2C)cc1
→ 119.0, 115.0
CCc1ccccc1NC(=O)Cn1nnc(C(=O)NCc2cccs2)c1N
→ 115.0, 117.0
Cc1ccc(C(=O)c2cn(Cc3ccccc3C)c3nc(C)ccc3c2=O)cc1
→ 108.0, 110.0
COc1ccc(N(C(=O)c2ccc(C(C)(C)C)cc2)S(=O)(=O)c2ccc(Cl)cc2)cc1
→ 104.0, 107.0
COc1ccc(CNC(=O)c2cc3c(=O)oc4ccc(C)cc4c3s2)c(OC)c1
→ 111.0, 110.0
Cc1cc(C)cc(NC(=O)c2ccc3c(c2)nnn3C2CCCC2)c1
→ 102.0, 96.0
CC(C)C(NS(=O)(=O)c1ccc2c(c1)oc(=O)n2C)C(=O)NCc1ccccc1 (stereo not given)
→ 112.0, 109.0
CCOc1ccc(C(=O)NCC(c2ccc3c(c2)OCO3)N2CCOCC2)cc1 (stereo not given)
→ 105.0, 104.0
COc1cc(NC(=O)CN(C)S(=O)(=O)c2ccc3c(c2)CCCC(=O)N3)cc(OC)c1OC
→ 101.0, 107.0
CCOc1ccccc1NC(=O)C1CCCN1S(=O)(=O)c1ccc2c(c1)C(C)(C)C(=O)N2C (stereo not given)
→ 108.0, 111.0
Cc1ccc2c(=O)cc(CSc3nnc(-c4ccccc4)n3C)[nH]c2c1C
→ 107.0, 110.0
Cc1ccc(NC(=O)c2cnn3c(C(F)F)cc(-c4ccccc4)nc23)c(C)c1
→ 105.0, 111.0
CSc1nc2sc3c(c2c(=O)n1-c1ccccc1)CCC(C(C)(C)C)C3 (stereo not given)
→ 106.0, 106.0
CCOC(=O)c1c(S(=O)(=O)NCC(=O)Nc2cc(C)ccc2C)c(C)n(C)c1C
→ 107.0, 108.0
COc1ccc(-n2c(=O)c3sc4ccccc4c3n(C)c2=O)cc1
→ 103.0, 109.0
CCOC(=O)C1CCCN(C(=O)C2CCN(S(=O)(=O)c3c(C)noc3/C=C/c3ccc(C)cc3)CC2)C1 (stereo not given)
→ 108.0, 112.0
COc1cc(OC)cc(C(=O)Nc2ccc(S(=O)(=O)Nc3onc(C)c3C)cc2)c1
→ 107.0, 108.0
Cn1c(=O)cc(SCC(=O)N2CCN(c3ccccc3)CC2)c2ccccc21
→ 103.0, 111.0
CC(C)c1ccc(Nc2c(-c3ccsc3)nc3ccc(Cl)cn23)cc1
→ 105.0, 105.0
Cc1cc(C)nc(-n2nc(C)c3c2N(Cc2ccccc2)C(=O)CC3c2ccc(Cl)cc2)n1 (stereo not given)
→ 101.0, 104.0
Cc1ccc(Cl)cc1N1CCN(S(=O)(=O)c2ccc3[nH]c4c(c3c2)CCCCC4)CC1
→ 105.0, 110.0
COc1cccc(CNC(=O)c2ccc3nc(N4CCCCC4)sc3c2)c1OC
→ 109.0, 110.0
CCS(=O)(=O)c1ncc(N(Cc2ccco2)Cc2sccc2C)c(C(=O)Nc2ccc(C)cc2C)n1
→ 111.0, 108.0

Compound profiles, from the list above. Values in the order: PV pol inh, PV pol inh intensity
Entry for `CCOC(=O)c1c(S(=O)(=O)NCC(=O)Nc2cc(C)ccc2C)c(C)n(C)c1C` : 107.0, 108.0
Entry for `Cc1ccc(Cl)cc1N1CCN(S(=O)(=O)c2ccc3[nH]c4c(c3c2)CCCCC4)CC1` : 105.0, 110.0
Entry for `COc1ccc(-n2c(=O)c3sc4ccccc4c3n(C)c2=O)cc1` : 103.0, 109.0

(more compounds)
Values run as follows: PV pol inh, PV pol inh intensity
COc1cccc(NC(=O)Cn2c(=O)n(Cc3ccc(F)cc3)c(=O)c3sc4ccccc4c32)c1
→ 106.0, 109.0
CCOc1ccc(NC(=O)CN(c2ccccc2OCC)S(=O)(=O)c2ccccc2)cc1
→ 108.0, 112.0
O=C(Nc1ccccc1C(=O)OCc1cc(=O)n2ccsc2n1)c1cccc(F)c1
→ 105.0, 103.0
CC(=O)N1CCC(N(C(=O)Nc2ccc(C)c(F)c2)C(C)C)CC1
→ 109.0, 117.0

Screening data: PubChem BioAssay, ICCB-Longwood Screening Facility, Harvard Medical School
